Compound activity (PubChem)
KCNQ2 block = KCNQ2 potassium channel inhibitors, primary screen, cell-based, CHO-K1, FluxOR thallium flux, B-score (AID 2156). 20 min; active compounds read low; only compounds with negative scores are shown here; some inactives read as strong as hits. actives 1.1% (n = 310,000). Potassium voltage-gated channel subfamily KQT member 2 (Rattus norvegicus), O88943. B-score at 10 µM;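 active means fluorescence ratio B-score at most minus 3 library SDs, with starting brightness B-score within 2 library SDs, cut at about -5.5 in these data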
Target sequence (O88943 whole entry, looked up): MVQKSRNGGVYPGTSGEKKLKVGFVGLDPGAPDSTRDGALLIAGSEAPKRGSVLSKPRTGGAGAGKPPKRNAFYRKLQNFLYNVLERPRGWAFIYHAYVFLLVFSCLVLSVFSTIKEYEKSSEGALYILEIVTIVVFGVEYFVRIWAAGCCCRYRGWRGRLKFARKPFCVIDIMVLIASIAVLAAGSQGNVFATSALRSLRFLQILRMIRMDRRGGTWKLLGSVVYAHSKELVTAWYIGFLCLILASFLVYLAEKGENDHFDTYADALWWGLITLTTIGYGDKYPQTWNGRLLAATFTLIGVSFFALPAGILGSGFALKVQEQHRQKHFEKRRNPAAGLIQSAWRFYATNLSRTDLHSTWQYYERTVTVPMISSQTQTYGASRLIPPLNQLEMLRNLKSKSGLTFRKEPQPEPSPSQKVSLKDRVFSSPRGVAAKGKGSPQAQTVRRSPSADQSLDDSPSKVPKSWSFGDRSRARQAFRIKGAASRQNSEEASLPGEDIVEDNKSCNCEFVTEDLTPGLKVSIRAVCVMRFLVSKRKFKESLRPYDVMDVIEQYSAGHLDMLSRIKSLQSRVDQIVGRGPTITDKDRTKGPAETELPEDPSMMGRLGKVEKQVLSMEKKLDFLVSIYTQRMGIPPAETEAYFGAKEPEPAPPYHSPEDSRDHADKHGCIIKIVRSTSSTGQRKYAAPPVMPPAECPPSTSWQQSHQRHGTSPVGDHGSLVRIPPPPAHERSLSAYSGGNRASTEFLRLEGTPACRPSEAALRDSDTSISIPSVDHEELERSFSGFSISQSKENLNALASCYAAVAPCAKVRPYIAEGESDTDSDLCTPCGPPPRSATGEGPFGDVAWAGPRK
KCNQ2 block baseline = further read-out of KCNQ2 block, marked with its call; B-score; measured here: initial fluorescence intensity artifact check;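 brightness before thallium and not channel activity; 0 = typical well and far values either way flag optical interference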
* hit, by the source's call; i = inactive.

structure	KCNQ2 block	KCNQ2 block baseline
O=C1CNC(=S)N1Cc1ccc(Cl)cc1	i	-0.88
O=C(c1ccc([N+](=O)[O-])cc1)N1CCSC1c1ccc(Br)cc1 (stereo not drawn)	i	-1.2
CN(CC(=O)Nc1ccc(C(N)=O)cc1)CC(=O)Nc1ccccc1Cl	i	0.07
Cc1ccc2nc(SCC(=O)Nc3ccc(F)cc3F)nc(=O)n2c1	i	-0.43
Nc1ccccc1C(=O)NCc1ccco1	i	-0.31
Cc1ccccc1Nc1nc2ccccc2n1C(C)C	i	-0.05
CSc1nc(N(C)NC(=O)c2ccc(Cl)cc2)c2ccccc2n1	i	0.01
COc1cccc(NC(=O)c2ncn[nH]2)c1	i	1.5
O=C(NCCN1CCc2ccccc2C1)C1CCN(S(=O)(=O)N2CCC3(CC2)OCCO3)CC1	i	0.03
CCCCCNc1nc2sc3c(c2c(=O)n1-c1cccc(Cl)c1)CCN(C)C3	i	-1.2
O=C(CSc1nnnn1Cc1ccccc1)c1ccc(F)cc1	i	2.1
COc1cccc(N=Nc2c(C)[nH]n(-c3ccccc3)c2=O)c1	i	0.93
CCOC(=O)c1c(C)[nH]c(C)c1S(=O)(=O)NCCCN1CCOCC1	i	-1.2
FC(F)(F)c1cc(N2CCNCC2)c2ccccc2n1	i	2.5
CCn1nc(CC(C)C)cc1C(=O)N1CCCC(Nc2ccc(F)cc2)C1 (stereo not drawn)	i	-1
COc1ccccc1NC(=O)CN1CCN(c2ccccc2)CC1	i	0.25
O=C(CN1C(=O)/C(=C/c2ccccc2F)Sc2ccccc21)NCc1cccnc1	i	-1
Cc1ccc(Nc2nc3ccccc3s2)cc1	i	-0.42
Cn1cc(CNC(=O)c2cc(-c3ccccc3)nc3ccc(Br)cc23)cn1	i	-1.3
N=c1c(C(=O)NCc2ccco2)cc2c(=O)n3ccccc3nc2n1CC1CCCO1 (stereo not drawn)	i	4.2
Cc1nc(NCCCO)c(C#N)c2c1COC(C)(C)C2	i	1.9
Cc1cc(N2C(=O)c3ccccc3C2=O)n(C)n1	i	0.29
COc1cc(/C=C2\Oc3cc(O)ccc3C2=O)ccc1O	i	30
COc1cc(C(c2nnnn2C2CCCC2)N2CCc3ccccc3C2)ccc1O (stereo not drawn)	i	-0.62
COc1ccc(CCNC(=O)CCNC(=O)c2ccc(Cl)cc2)cc1OC	i	0.13

New compounds follow
structure	KCNQ2 block	KCNQ2 block baseline
Cc1ccc(OCc2cc(C(=O)N3CCN(C4CCCC4)CC3)no2)cc1C	i	0.73
CCc1cccc(OCC(=O)Nc2ccccc2N2CCCC2)c1	i	1.7
O=C(OC(C(=O)NC1CCCC1)c1ccc(F)cc1)c1ccno1 (stereo not drawn)	i	0.6
CC(C)NC(=O)Cc1ccc(Br)cc1	i	-0.53
C/C(=C\c1ccccc1)C(=O)Nc1ccc(Cl)cn1	i	-1.4
CC(=O)OCC1OC(n2cc(F)c(=O)[nH]c2=O)C(OC(C)=O)C1OC(C)=O (stereo not drawn)	i	-0.12
COc1ccc(CCNC(=O)CSc2nc(-c3ccc(OC)c(OC)c3)ccc2C#N)cc1	i	1.2
CCOC(=O)CN(C#N)c1nc(C)cc(C)n1	i	0.08
CC1=NNC(=O)C1CCC(=O)N/N=C(/C)c1ccc([N+](=O)[O-])cc1 (stereo not drawn)	i	2.4
O=C1CCC(C(=O)N(Cc2cccs2)C2(C(=O)NC3CCCCC3)CCCCC2)N1 (stereo not drawn)	i	-1.2
Cc1ccn2c(=O)nc(SCC(=O)N3CCC(Cc4ccccc4)CC3)nc2c1	i	-2.9
COc1cc(/C=C(\C#N)c2nc3c(s2)CC(C)CC3)ccc1O (stereo not drawn)	i	1.8
Cc1cccc(OCC(=O)NCCCNC(=O)c2cnccn2)c1	i	-0.47
CC(SCc1ccccc1)C(=O)Nc1ccc2c(c1)OCO2 (stereo not drawn)	i	-1.2
O=C(CNCc1cccs1)NC12CC3CC(CC(C3)C1)C2	i	-1.1
COc1ccccc1N(CC(=O)N/N=C(\C)c1ccccc1O)S(=O)(=O)c1ccc(C)cc1	i	-0.69
CCCCN(CC)CCNC(=O)C1CCCN(S(=O)(=O)c2cccc3nsnc23)C1 (stereo not drawn)	i	1.4
CC(=O)Nc1ccc(N2C(=O)CSC2c2cccc([N+](=O)[O-])c2)cc1 (stereo not drawn)	i	0.45
O=C(CC1SC(N2CCCCC2)=NC1=O)Nc1ccc(C(=O)Nc2ccccc2)cc1 (stereo not drawn)	i	-0.31
COC(=O)CCCNS(=O)(=O)c1ccc2ccccc2c1	i	0.01
CSC(=S)NCc1cccnc1	i	-0.31
CCOc1ccc(Cn2c(C)nc([N+](=O)[O-])c2SCC(O)CCl)cc1[N+](=O)[O-] (stereo not drawn)	i	0.78
Cc1cc(Sc2nnc(N)s2)c2ccccc2n1	i	0.11
Cc1c(OCC(=O)N(C)c2ccccc2)ccc2c3c(c(=O)oc12)CCC3	i	-0.23
Cc1ccc(OC(=O)c2cncc(Br)c2)c(C)c1	i	-0.12

(cont.)
structure	KCNQ2 block	KCNQ2 block baseline
CCn1c(N2CCN(CC(=O)c3c(C)n(C)c4ccccc34)CC2)nc2c1c(=O)[nH]c(=O)n2C	i	-0.48
CCCCCC(=O)Nc1cccc(C2=NOC3(C2)C[C@@H](C(N)=O)N(C(=O)c2cc([N+](=O)[O-])cc([N+](=O)[O-])c2)C3)c1 (stereo partly drawn)	i	-0.68
N#CC1=C(SCc2ccccc2Cl)NC(=O)C(C(N)=O)C1 (stereo not drawn)	i	0.11
CSCCC(NC(=O)c1ccccc1)C(=O)Nc1ccc(C)cc1 (stereo not drawn)	i	-0.65
COc1cc(NC(=S)NN2CCN(C)CC2)cc(OC)c1OC	i	1.4
CCOC(=O)C1CCN(S(=O)(=O)c2cc(F)ccc2OC)CC1	i	-0.24
c1csc(C(c2nnnn2C2CCCCC2)N2CCCC3(CCCCC3)C2)c1 (stereo not drawn)	i	0.28
CCOC(=O)C1=C(CSc2nc(CC)c(C)cc2C#N)OC(N)=C(C#N)C1c1ccccc1 (stereo not drawn)	i	2.1
Nc1nc(SCC(=O)Nc2ccccc2Sc2ccccc2)n[nH]1	i	-0.03
COc1cc(C(=O)COC(=O)C2CCN(c3ccc(C(F)(F)F)cn3)CC2)ccc1OC(F)F	-9.9*	-2.1*
CCCCCC1CC(CC(=O)Nc2ccc([N+](=O)[O-])cc2)OC1=O (stereo not drawn)	i	1
CC(=O)c1ccc(NC(=O)CC2S/C(=N/N=C3CCCCCC3)NC2=O)cc1 (stereo not drawn)	i	1.6
COc1ccc(C2=C/C(=C\c3cccc(OC(C)=O)c3)C(=O)O2)cc1	i	2.5
CCOC(=O)c1ccc(NC(=O)c2ccc3c(c2)C(=O)N(CC2CCCO2)C3=O)cc1 (stereo not drawn)	i	2.2
COc1ccccc1N1CCN(S(=O)(=O)c2ccc(-c3ccc(=O)[nH]n3)o2)CC1	i	-1.4
Cc1cc(C)cc(Oc2c(C(F)(F)F)oc3cc(OCC(=O)O)ccc3c2=O)c1	i	0.03
COc1cc(CCC(=O)OCC(=O)NCc2ccc(Cl)cc2)cc(OC)c1OC	i	1.1
CC1(C(=O)NC23CC4CC(CC(C4)C2)C3)CC1(Cl)Cl (stereo not drawn)	i	0.99
O=C(N1CCN(c2ccccc2)CC1)C(F)(F)C(F)(F)F	i	-0.02
Cc1cc(C(=O)CSc2nn(-c3ccccc3)c(=S)s2)c(C)n1Cc1ccco1	i	3.7
CN(CC(=O)Nc1ccc(Cl)cc1)C(=O)c1ccc(NS(=O)(=O)c2ccc3[nH]c(=O)[nH]c3c2)cc1	i	-1.1
Cc1cc(NC(=O)CSc2nc(=O)n3cccc(C)c3n2)no1	i	0.99
CCOn1c(=O)c(C)[n+]([O-])c2ccccc21	i	0.34
COc1ccc(CCNC(=O)C(=O)c2c(C)n(C)c3ccccc23)cc1OC	i	0.33
COC(=O)CSc1nc(N)c(NC(=O)c2ccc(OC)c(OC)c2)c(=O)[nH]1	i	0.8

Compounds listed so far that contain a Cl atom, in the order listed:
structure	KCNQ2 block	KCNQ2 block baseline
O=C1CNC(=S)N1Cc1ccc(Cl)cc1	i	-0.88
CN(CC(=O)Nc1ccc(C(N)=O)cc1)CC(=O)Nc1ccccc1Cl	i	0.07
CSc1nc(N(C)NC(=O)c2ccc(Cl)cc2)c2ccccc2n1	i	0.01
CCCCCNc1nc2sc3c(c2c(=O)n1-c1cccc(Cl)c1)CCN(C)C3	i	-1.2
COc1ccc(CCNC(=O)CCNC(=O)c2ccc(Cl)cc2)cc1OC	i	0.13
C/C(=C\c1ccccc1)C(=O)Nc1ccc(Cl)cn1	i	-1.4
CCOc1ccc(Cn2c(C)nc([N+](=O)[O-])c2SCC(O)CCl)cc1[N+](=O)[O-] (stereo not drawn)	i	0.78
N#CC1=C(SCc2ccccc2Cl)NC(=O)C(C(N)=O)C1 (stereo not drawn)	i	0.11
COc1cc(CCC(=O)OCC(=O)NCc2ccc(Cl)cc2)cc(OC)c1OC	i	1.1
CC1(C(=O)NC23CC4CC(CC(C4)C2)C3)CC1(Cl)Cl (stereo not drawn)	i	0.99
CN(CC(=O)Nc1ccc(Cl)cc1)C(=O)c1ccc(NS(=O)(=O)c2ccc3[nH]c(=O)[nH]c3c2)cc1	i	-1.1

Next part
structure	KCNQ2 block	KCNQ2 block baseline
CCOC(=O)c1nnn2c1nc(Nc1cccc(C(F)(F)F)c1)c1ccccc12	i	-0.36
Cc1cc(C(=O)CCC(=O)NCc2ccccc2F)c(C)s1	i	1.8
Cc1ccccc1NC(=S)N(C)CCc1ccccn1	i	0.01
CCCC(=O)OCCNc1cc(SCCC(=O)OC)c2nonc2c1[N+](=O)[O-]	i	-0.07
Cc1cc(NC(=O)Cc2ccccc2)c2ccccc2n1	i	0.71
COc1ccc(-c2cc(-c3ccccc3)nc(NN)n2)cc1OC	i	0.08
O=C(Cc1cccs1)NCc1ccncc1	i	-0.05
COc1ccc(CCC(C)NCC(C)c2ccccc2)cc1 (stereo not drawn)	i	-0.65
COc1cccc(OC)c1OCCCOc1c(OC)cccc1OC	i	0.27
CCOC(=O)C(C)c1ccc2cc(OC)ccc2c1 (stereo not drawn)	i	1
CC(C)(C)c1ccc(C(=O)NN2C(=O)CSC2=S)cc1	i	-0.19
Nc1nc(Nc2ccc(Cl)cc2)nc(NCc2ccco2)c1[N+](=O)[O-]	i	-0.07
O=C(CN1c2ccccc2Sc2ccccc21)NNC(=S)Nc1ccc(Cl)cc1Cl	i	-1.6
O=[N+]([O-])c1ccc(/C=N/NC(=S)Nc2ccccc2C(F)(F)F)o1	i	0.18
COc1ccccc1-c1nc(C#N)c(N2CCC(Cc3ccccc3)CC2)o1	i	-0.67
CCOc1ccccc1CN1CCC(N2CCOCC2)CC1	i	0.8
COc1cccc(OC)c1CC1SC(=O)NC1=O (stereo not drawn)	i	-0.38
CC(Oc1cccc(F)c1)c1ccnc2nc(/N=C/N(C)C)nn12 (stereo not drawn)	i	0.38
COc1ccc(/C=C/C(=O)Nc2ccc(S(=O)(=O)Nc3cc(C)nc(C)n3)cc2)cc1OC	i	1
CC1=NN(c2nc(-c3ccc(C)cc3)cs2)C(=O)C1N=Nc1ccc2ccccc2c1 (stereo not drawn)	i	0.27
COc1ccc2c(c1)C(SCC(=O)NCc1ccccc1)CC(C)(C)O2 (stereo not drawn)	i	0.44
O=C(CC1Sc2ccccc2NC1=O)c1ccc(Br)cc1 (stereo not drawn)	i	2.4
O=C1c2ccccc2C(Nc2cccnc2)N1Cc1ccccc1 (stereo not drawn)	i	2.8
COc1ccc(NC(=S)N2CCN(S(=O)(=O)c3ccc(F)cc3)CC2)cc1	i	1
CCOC(=O)CCc1nn(C)c(=O)c2ccccc12	i	2.5

More compounds
Compound | KCNQ2 block | KCNQ2 block baseline
CCCC(C)NC(=O)CSCc1ccc(OC)cc1 (stereo not drawn) | i | 2.2
Cc1ccccc1NC(=O)NCCCN1CCN(C2CCCCC2)CC1 | i | 1.9
Cc1ccc(S(=O)(=O)Nc2ccccc2C(=O)NCc2cccnc2)cc1 | i | -1.1
NC(=O)c1nsc(C(=O)N(Cc2ccc(F)cc2)C(C(=O)NC2CCCC2)c2ccco2)c1N (stereo not drawn) | i | -0.02
COc1ccc(-c2nc(-c3ccc(Br)cc3)no2)c(OC)c1 | i | 0.83
CC(Sc1nc(NCc2ccccc2)nc(N(C)C)n1)C(=O)Nc1ccccc1 (stereo not drawn) | i | 0.07
CC1=C(C(=O)Nc2ccc(C)cc2C)C(c2ccc(C)o2)NC(=S)N1 (stereo not drawn) | i | 0.53
CCCC(=O)N(c1ccc2oc(C)c(C(C)=O)c2c1)S(=O)(=O)c1ccc(C)c([N+](=O)[O-])c1 | i | -1.2
CCCC(=O)Nc1ccc2nn(-c3ccc(OC)cc3)nc2c1 | i | 1
CCOP(=O)(OCC)/C(C#N)=C/c1cc(OC)ccc1OC | i | 1.1
CCC(CC)c1nnc(NC(=O)CCNC(=O)c2ccccc2Cl)s1 | i | 0.12
Clc1ccccc1N=C1NN=C(c2cccs2)CS1 | i | -0.57
CC(C)(C)C1CCC(=NNC(=O)C(=O)NCc2ccco2)CC1 (stereo not drawn) | i | 0.97
COC(=O)[C@]1(Cc2ccccc2)N[C@H](c2ccc(-c3ccc(F)cc3)cc2)[C@@H]2C(=O)N(C)C(=O)[C@@H]21 | i | -0.31
CCN(CC)c1ccc(C(=O)O)cc1 | i | -0.52
O=C(Nc1ccc(Cl)c(Cl)c1)Nc1ccccc1NS(=O)(=O)c1cccs1 | i | -0.79
O=C(CN1CCN(c2ccccn2)CC1)Nc1cccc(Br)c1 | i | -1.1
C=CCN(c1ccc(C(N)=O)cc1)S(C)(=O)=O | i | -1.1

This is a subset; the hit share may differ from the screen's.
